Assay outcomes (PubChem)
Tgondii IFNg: T. gondii growth inhibition with IFN-gamma, primary screen, cell-based; Toxoplasma gondii growth in IFN-gamma-treated host cells; active compounds read low; reference of the scale not given here; activity change, negative = inhibition, %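 (about 20 µM by stock and volumes)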; 69,000 compounds, 3.8% hits; AID 1259416, 2018;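 active means below -70%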;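 further: host cells are HeLa cells infected with Toxoplasma gondii; parasite growth read as luciferase light; one replicate is shown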
The depositor's hits bear a star; i = inactive; & = joins results of further samples. Only part of the results is shown; the hit share may differ from the screen's.

SMILES	Tgondii IFNg
c1cc2c(cc1N1CCC(NCCN3CCCCC3)CC1)OCO2	-3
O=C1NC(c2ccncc2)Nc2ccccc21 (stereo not drawn)	0
Cc1csc(-c2ccc(N3CCN(C(=O)c4cc5ccccc5[nH]4)CC3)nc2)n1	-14
Nc1nc2ccc(Cl)cc2c2nc(-c3ccco3)nn12	7&3
CC(C)c1ccc2cc(C(=O)N3C[C@H](N(C)C)C[C@H]3CO)[nH]c2c1	2
CS(=O)(=O)N1CCOC2(COCCN(c3cncnc3)C2)C1 (stereo not drawn)	3
COc1ccc(-c2nc(Cn3ccn4nc(-c5ccccc5)cc4c3=O)c(C)o2)c(OC)c1	i
CN(C/C=C/c1ccco1)CC1(CO)CCCC1	-1
Cc1oc(-c2cc(F)cc(F)c2)nc1COc1ccc(CC(N)=O)cc1	7
N#CCN1CCOC2(CCN(C(=O)c3ccsc3)CC2)c2ccccc21	33
O=C(c1scc2c1OCCO2)N1CC[C@@H](c2ccc(F)cc2)[C@H](O)C1	5
Cc1nc2ccncc2cc1C(=O)N1CCN(C)C(=O)C1	3
Cc1cccc(C)c1NC(=O)Cn1ncc2c(N3CCN(c4ccccc4)CC3)ncnc21	157
O=C(c1ccco1)N1N=C(c2ccco2)CC1c1ccco1 (stereo not drawn)	-12
NCCCCNCCCN	16
COCC(=O)O[C@]1(CCN(C)CCCc2nc3ccccc3[nH]2)CCc2cc(F)ccc2[C@@H]1C(C)C	-72*
COc1ccc(CNC(=O)C2CCCN2C)cc1OC (stereo not drawn)	2
CCN1C(=O)CCc2cc(NC(=O)C3CCC3)ccc21	119
COC(=O)C[C@H]1CC[C@H]2[C@@H](COc3ccc(NC(=O)Nc4cccc(C#N)c4)cc3C(=O)N2C)O1	7
CSc1ccc(CN(C(=O)c2cc(C)[nH]c(=O)c2)C2CC2)cc1	-18
O=C1C[C@H]2CC[C@@H](CN1)N2C(=O)Cc1ccsc1	-1
O=C1c2ccccc2OCC12CCN(Cc1ccccc1)C2 (stereo not drawn)	13
O=C(O)COc1ccc2c(c1)CCCC2	1
Cc1cccc(C2c3[nH]c4ccccc4c3CCN2Cc2cccnc2)c1 (stereo not drawn)	24

Structures above that have nitrogen in an aromatic ring (twelve):
SMILES	Tgondii IFNg
O=C1NC(c2ccncc2)Nc2ccccc21 (stereo not drawn)	0
Cc1csc(-c2ccc(N3CCN(C(=O)c4cc5ccccc5[nH]4)CC3)nc2)n1	-14
Nc1nc2ccc(Cl)cc2c2nc(-c3ccco3)nn12	7&3
CC(C)c1ccc2cc(C(=O)N3C[C@H](N(C)C)C[C@H]3CO)[nH]c2c1	2
CS(=O)(=O)N1CCOC2(COCCN(c3cncnc3)C2)C1 (stereo not drawn)	3
COc1ccc(-c2nc(Cn3ccn4nc(-c5ccccc5)cc4c3=O)c(C)o2)c(OC)c1	i
Cc1oc(-c2cc(F)cc(F)c2)nc1COc1ccc(CC(N)=O)cc1	7
Cc1nc2ccncc2cc1C(=O)N1CCN(C)C(=O)C1	3
Cc1cccc(C)c1NC(=O)Cn1ncc2c(N3CCN(c4ccccc4)CC3)ncnc21	157
COCC(=O)O[C@]1(CCN(C)CCCc2nc3ccccc3[nH]2)CCc2cc(F)ccc2[C@@H]1C(C)C	-72*
CSc1ccc(CN(C(=O)c2cc(C)[nH]c(=O)c2)C2CC2)cc1	-18
Cc1cccc(C2c3[nH]c4ccccc4c3CCN2Cc2cccnc2)c1 (stereo not drawn)	24

(continued)
SMILES	Tgondii IFNg
Oc1[nH]c2ccccc2c1N=Nc1nnc(-c2ccccc2)c(-c2ccccc2)n1	-50
Cc1nc(C(C)C)sc1C(=O)NCCc1nnc2n1CCNCC2	-29
Cc1ccc2c(c1)CN(S(C)(=O)=O)CC1(CCN(Cc3ccccc3)CC1)O2	-5
CN(C)CC(=O)N1C[C@H]2COC[C@@]2(c2nnc(C3CC3)o2)C1	2
COc1ccccc1NC(=O)c1cncc(NS(=O)(=O)c2ccc(C)cc2C)c1	-18
CC(C)N1C(=O)N(C)C2(CCN(Cc3ccc4c(c3)Cc3ccccc3-4)CC2)C1=O	8
COC(=O)c1sc(S(=O)(=O)Nc2ccc(F)cc2)cc1Cl	46
Cc1nc(C)n(CCCn2cc(-c3ccnc4ccccc34)nn2)n1	1
COc1cc(NCC(c2cccnc2)N2CCOCC2)ncn1 (stereo not drawn)	-8
C[C@@H]1CN([C@@H](C)CO)C(=O)CCCn2nncc2CO[C@H]1CN(C)C(=O)c1ccc2ccn(C)c2c1	5
CCc1nc(Nc2ccc3c(c2)OCO3)c2nnn(Cc3ccccc3Cl)c2n1	-99*
Cc1ccccc1-c1noc(CN2CCCC2c2nc(-c3ccccn3)no2)n1 (stereo not drawn)	14
Cn1ncc2c3ccccc3n(CC(=O)NCCCN3CCCC3)c2c1=O	-68
CC(C)N1CCC(c2nnc3ccc(C(=O)Cc4ccccn4)cn23)C1 (stereo not drawn)	46
Cc1ccc(C)c(Cn2c(=O)c3c(nc4n(Cc5ccco5)c(C)c(C)n34)n(C)c2=O)c1	-31
O=S(=O)(c1ccccc1F)N1CCC(c2nc3ccc(-c4ccncc4)cn3n2)CC1	-28
Cc1ccc(NC(=O)c2nnn(Cc3nc(-c4ccccc4)oc3C)c2C)cc1F	-26
Cc1ccc(NC(=O)c2nnn(Cc3nc(-c4cccc(Cl)c4)oc3C)c2C)c(Cl)c1	-3
c1ccc(Cn2ncc3c(N4CCN(c5ccccn5)CC4)ncnc32)cc1	-16
C[C@@H]1CCCCO[C@H](CN(C)CC2CCCCC2)[C@@H](C)CN([C@H](C)CO)C(=O)c2cc(NS(C)(=O)=O)ccc2O1	6
CCCC(=O)N1CC2(C1)CN(Cc1cccnc1)[C@@H](CO)c1[nH]c3cc(OC)ccc3c12	41
CCC(NC(=O)CCNC(=O)c1ccccc1F)c1cccs1 (stereo not drawn)	99
COc1ccccc1CNC(=O)c1ccc(-c2nc(CN3CCN(c4ccccc4)CC3)c(C)o2)cc1	-109*
Cn1c(CCC(=O)N2CCCC3(CNC(=O)O3)C2)nc2cccnc21 (stereo not drawn)	36
CCSc1nc(CC(=O)NCc2sc(C)nc2CC)cs1	2
c1c(CN2CCSCC2)nn2c1CNCCC2	6
COc1ccc(C(=O)Nc2ccc3c(c2)N(C)CCC3)cc1OCc1ccccn1	-13
CCC(C)NC(=O)c1nc(Nc2ccccc2)c2ccccc2n1 (stereo not drawn)	-66
CN(C)CCNC(=O)[C@H]1C[C@@H]2CN(C(=O)NC3CCCC3)C[C@H]1O2	-39
O=C(CN1CCOCC1)N1CC[C@@H]2[C@@H](CO)Nc3ccc(-c4ccccc4F)cc3[C@@H]21	-3
CC(C)(C)c1ccc(OCC(=O)N2CCOC(c3[nH]ncc3-c3ccnc(N)c3)C2)cc1 (stereo not drawn)	-35
N#C[C@@H]1[C@@H](c2ccc(-c3cccc(F)c3)cc2)[C@H](CO)N1c1nc(-c2ccccc2)cs1	-10
COc1ccc(CNC(=O)C(CC(C)C)OC(=O)c2cccs2)cc1 (stereo not drawn)	-2
Cc1ccc(N2CCC3(CC2)CN(C)C(=O)CO3)nn1	19
COC[C@H](N)C(=O)N1CCC(Cc2nnc(SC)n2C)CC1	-50
COc1ccc(-c2nc(CSc3nc4ccccc4c(=O)[nH]3)c(C)o2)cc1	-46
CCCN(CCC)C(=O)NCCCCCCNC(=O)N(CCC)CCC	0
CC(C)CC(NC(=O)c1cnnn1-c1ccccc1)c1ncnn1C (stereo not drawn)	-24
COc1ccc(CN(CC(=O)NCc2ccc3c(c2)OCO3)C(=O)c2csnn2)cc1	-2
CCCSc1ncc(C2CC(=O)Nc3c2cnn3Cc2cccnc2)cn1 (stereo not drawn)	-2
Cc1ccc(NC(=O)C(=O)NCCc2csc(-c3ccc(C(F)(F)F)cc3)n2)cc1C	52
CCOCCCNC(=O)C1=C(C)C(=O)OC12CCN(S(=O)(=O)c1cccs1)CC2	4
CC(O)c1ccc(-c2cccc(CN3CCOCC3)c2)cc1 (stereo not drawn)	0
CCOc1ccc(-n2c(CCc3c(C)n[nH]c3C)n[nH]c2=O)cc1	0
c1coc(CNCC2Cn3nncc3CO2)c1 (stereo not drawn)	-16
CC[C@@H](C(=O)[C@@H](C)[C@@H](O)[C@H](C)[C@@H]1O[C@@H]([C@@H](CC)C(=O)O)CC[C@@H]1C)[C@H]1OC2(C=C[C@@H](O)[C@]3(CC[C@@](C)(C4CC[C@](O)(CC)[C@H](C)O4)O3)O2)[C@H](C)C[C@@H]1C (stereo partly drawn)	-84*
COc1cccc(CNC(=O)CCC2CCCN(C3C4CC5CC(C4)CC3C5)C2)c1 (stereo not drawn)	-2
CC1(C)CC(=O)c2c(C(F)(F)F)nn(-c3ccc(C(N)=O)c(NC4CCC(OC(=O)CN)CC4)c3)c2C1 (stereo not drawn)	-76*

A draw from above in order of number of heavy atoms, ascending:
SMILES	Tgondii IFNg
CCCSc1ncc(C2CC(=O)Nc3c2cnn3Cc2cccnc2)cn1 (stereo not drawn)	-2
CCOCCCNC(=O)C1=C(C)C(=O)OC12CCN(S(=O)(=O)c1cccs1)CC2	4
COc1cccc(CNC(=O)CCC2CCCN(C3C4CC5CC(C4)CC3C5)C2)c1 (stereo not drawn)	-2

The list continues:
SMILES	Tgondii IFNg
Cc1cccc(-c2nc(CN3CCN(Cc4cc(=O)oc5cc(C)ccc45)CC3)c(C)o2)c1	0
CC1=C(C(=O)NCCCN2CCCCCC2)C2(CCN(S(C)(=O)=O)CC2)OC1=O	24
NC(=O)c1cccc(-c2cccc(C3CCCNC3)n2)c1 (stereo not drawn)	1
CC(C)c1ccc(NCC(O)CSc2ccccc2)cc1 (stereo not drawn)	-38
CCS(=O)(=O)N1CCC(O)(CN2CC3(CCCCC3)CC2=O)CC1	66
CC1CNC(=O)CCN1C(=O)c1cc(-n2cccn2)ccc1Cl (stereo not drawn)	-2
COc1ccc2c3c([nH]c2c1)[C@@H](CO)N(C(=O)Nc1ccc(F)cc1)CC31CN(C(=O)c2ccccn2)C1	41
O=C(Nc1cccc2cccnc12)c1ccc(N2C(=O)[C@@H]3[C@H](C2=O)[C@@H]2C=C[C@H]3C2)cc1	24&40
COCCC(=O)C1c2c(ncn2C)CCN1C(C)C (stereo not drawn)	52
COc1cccc(CNC(=O)Nc2ccc(-c3nc(-c4cc(C)ccc4C)co3)cc2)c1	-13
O=C(NC(=S)N1CCOCC1)c1cccs1	-2
CC1CCN(c2ccc(C(C)NC(=O)CCc3nc4ccccc4oc3=O)cc2)CC1 (stereo not drawn)	5
CSCC(O)Cn1ncc2ccccc2c1=O (stereo not drawn)	17
Cc1noc(C)c1S(=O)(=O)N(C)C[C@H]1OCCCC[C@@H](C)Oc2ccc(NC(=O)CCC(F)(F)F)cc2C(=O)N([C@@H](C)CO)C[C@H]1C	21
CNC(=O)[C@@H](NC(=O)[C@H](CC(C)C)[C@H](O)C(=O)NO)C(C)(C)C	14
